Bioassay records from PubChem BioAssay.
Yeast UUG start = modulators of start codon recognition fidelity in yeast; S. cerevisiae UUG-firefly luciferase reporter, luminescence/redox ratio; activity score, % at 18.7 µM; AID 602363; 0.13% of 350,000 active;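 active means replicate mean at a twofold rise or more, about +100% in these data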;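 further: firefly luciferase made from a UUG start codon reports start codon fidelity; reporter light over untreated wells divided by growth signal over untreated wells; some hits fall short of that in this replicate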
CSC inhib = cancer stem cell inhibition; cancer stem cell-like cells viability, luminescence; inhibition, % at 7.5 µM; 1.1% of 300,000 active; AID 2717;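 active means mean at 75% or more and at least half the replicates too; inconclusive means mean and replicates disagree; tested in HMLE shEcad cells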;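 further: 0% = median of negative and 100% = median of positive control wells; the first replicate is given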
PABP FP inh = PABP-poly(A) binding inhibition. P11940. PABP-poly(A) RNA binding, fluorescence polarization. inhibition, % at 35 µM. 1% of 290,000 active. AID 2014;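 active means 50% or more with normal probe brightness, or confirmed in later tests; inconclusive means above 50% with abnormal brightness, or retests that disagree; inactive means below 50% or failed in later tests; about a fifth of its hits are not listed in these tables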;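 further: calls also rest on retests at 20 µM and on dose response follow-up; controls were probe without protein and protein plus probe with vehicle; some compounds called inactive have numbers as strong as hits; many hits fall short of the cut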
eIF4H FP inh = inhibitors of RNA binding by human eIF4H; Q15056; eIF4H fluorescence polarization binding assay; inhibition, % at 35 µM; 0.94% of 290,000 active;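 active means 50% or more with normal probe brightness, or confirmed in later tests; inconclusive means above 50% with abnormal brightness, or retests that disagree; inactive means below 50% or failed in later tests; about a fifth of its hits are not listed in these tables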;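 further: calls also rest on retests at 20 µM and on dose response follow-up; 0% = protein and probe with vehicle and 100% = probe without protein; strong numbers were not always called active; many hits fall short of the cut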
MT1-MMP act inh = blocks activation of human MT1-MMP. 0.061% of 360,000 active. HT1080 RFP-PRO-GFP cells, GFP/RFP ratio fluorescence, overnight; percent of plate control window, DMSO zero. AID 651647. GFP/RFP ratio change, % at 20 µM;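 active means GFP/RFP ratio change of at least 30% with cell ATP level not reduced by more than half and red fluorescence within 50% of control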; further: strong numbers were not always called active
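Test system: HT1080 cells expressing an RFP-PRO-GFP fluorescent reporter construct / Compound dosing: single-point 20 µM compound, 1% DMSO / Schedule: cells overnight before dosing, compound overnight, 37 °C, 5% CO2 / Evaluation: GFP/RFP fluorescence ratio / Control set: DMSO and RFP-L50D-GFP cell wells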
Env fusion inh = inhibitors of HIV Env-mediated cell fusion; HeLa-JRFL Env/CEM21 cell fusion, luciferase; inhibition, % at 12.3 µM; 1.1% of 360,000 active; AID 651610;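 active means mean replicate inhibition score of at least 50 and every replicate individually at or above 50; inconclusive means only one of the two criteria met; inactive means mean below 50 and not all replicates reaching 50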;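 further: 0% = plate neutral controls and 100% = maraviroc near 300 nM; one replicate is shown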
Rce1 inhib = yeast Ras-converting enzyme inhibition. calls only. yeast membranes, quenched prenylated peptide cleavage fluorescence. 0.27% of 290,000 active. Q03530;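 active means fall in fluorescence gain of 50% or more versus controls, with final raw signal at or below 3038400; inconclusive means same 50% fall but final raw signal above 3038400; inactive means fall in fluorescence gain under 50%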;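 further: plate controls were neutral control wells for no effect and wells lacking membranes for full effect; tested at 10 µM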
Target sequence (Q03530 whole entry, looked up): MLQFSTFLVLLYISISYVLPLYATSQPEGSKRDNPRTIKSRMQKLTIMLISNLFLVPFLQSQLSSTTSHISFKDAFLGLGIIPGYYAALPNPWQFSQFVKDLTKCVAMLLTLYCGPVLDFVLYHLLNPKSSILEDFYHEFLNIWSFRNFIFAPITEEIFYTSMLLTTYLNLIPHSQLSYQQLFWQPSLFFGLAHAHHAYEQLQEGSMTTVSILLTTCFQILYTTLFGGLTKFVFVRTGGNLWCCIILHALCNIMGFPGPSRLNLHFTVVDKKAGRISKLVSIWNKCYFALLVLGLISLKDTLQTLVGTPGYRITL
eIF4H FP inh retest = second read-out of eIF4H FP inh, no call of its own (marks repeat the call); inhibition, %; compound at 20 µM; confirmation average;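 mean of two retest wells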
PABP FP inh retest = second read-out of PABP FP inh, no call of its own (marks repeat the call); inhibition, %; compound at 20 µM; confirmation repeats;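 mean of two retest wells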
MT1-MMP act inh RFP = second read-out of MT1-MMP act inh, no call of its own (marks repeat the call); RFP signal change, %; measured here: RFP expression control read;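 0 = vehicle wells; hits needed this value within 50% of zero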
An asterisk follows results filed as active; i = inactive; ? = inconclusive; / = no result given.

SMILES | Yeast UUG start | CSC inhib | PABP FP inh | eIF4H FP inh | MT1-MMP act inh | MT1-MMP act inh RFP | Env fusion inh | Rce1 inhib | others
O=C(c1ccco1)N1CCN(C(=O)C2CC(c3ccccc3F)=NO2)CC1 (stereo not drawn) | 4 | 1 | 0 | 2 | -1 | 2 | -15 | i
O=C(NC(c1ccccc1)c1ccccc1)c1cccc(S(=O)(=O)NCc2ccccc2)c1 | / | 10 | 2 | -6 | -2 | -5 | 2 | i
O=S1(=O)CC2NC(=S)N(c3cccc(Br)c3)C2C1 (stereo not drawn) | -13 | 3 | -12 | -9 | 0 | 3 | 12 | i
O=c1[nH]c2ccc(Cl)cc2c(-c2ccccc2)c1[N+](=O)[O-] | -2 | 26 | 22 | 19 | -13 | -4 | -347 | /
CCCC(=O)Nc1ccc(OCC(=O)OC)cc1 | -11 | -10 | 2 | -4 | 2 | 3 | / | i
O=c1c2cnn(-c3ccc(F)cc3)c2ncn1Cc1cccnc1 | -22 | -14 | -3 | -9 | 2 | -9 | / | i
O=C(NC1CCc2ccccc21)C1CCN(S(=O)(=O)c2ccc(-n3cnnn3)cc2)CC1 (stereo not drawn) | -4 | 2 | -5 | -4 | -2 | -6 | / | i
COc1cccc(Nc2nc(-c3ccccc3)nc3ccccc23)c1 | -9 | 92* | 3 | 3 | -1 | 0 | 15 | i
O=C(Cc1ccccc1)NC(NCCCN1CCOCC1)(C(F)(F)F)C(F)(F)F | -9 | 3 | 6 | -3 | 4 | 9 | / | i
COc1c(Br)cc(Br)cc1C(=O)Nc1ccccc1N1CCCC1 | -5 | 24 | -8 | -9 | -3 | -4 | 15 | i
S=C(NCCc1ccccn1)Nc1cc(Cl)cc(Cl)c1 | / | 22 | 1 | -4 | 1 | -5 | 4 | i
CC1(C)CC(=O)C2=C(C1)Nc1ccccc1NC2c1ccc(F)cc1 (stereo not drawn) | -6 | 6 | 4 | 15 | -2 | 0 | 0 | i
CCc1ccc(/C(C)=N/NC(=O)C(O)c2ccccc2)s1 (stereo not drawn) | / | 4 | / | / | -1 | -2 | 16 | /
CCC(=O)N1C(Cc2ccccc2)COC1(C)C (stereo not drawn) | / | 13 | 9 | 2 | 3 | 9 | 3 | i
COc1cccc(C(=O)NNC(=O)CCN2CCN(c3ccccc3)CC2)c1 | -4 | 5 | / | / | -1 | 1 | -10 | /
CCNc1nc(Oc2c(Cl)cccc2Cl)cc(C(F)(F)F)n1 | -13 | ? | -6 | 1 | -10 | -12 | -14 | i
CCCCC(=O)NC(c1ccc(OC)c(OC)c1)c1ccc2cccnc2c1O (stereo not drawn) | -24 | / | / | / | 12 | -4 | 29 | /
CCCCCC(=O)NC(=S)NNC(=O)c1ccc([N+](=O)[O-])cc1 | / | -33 | 22 | -1 | 6 | 2 | 8 | i
CCOC(=O)C1=C(C)NC(=O)NC1c1ccsc1 (stereo not drawn) | 3 | -4 | -4 | 4 | 8 | 9 | / | i
O=C(C(Cl)Cl)N1CCN(Cc2ccccc2)CC1 | / | -26 | -18 | 7 | -4 | -1 | 5 | i
CN1CCN(CCC(=O)Nc2cccc(F)c2)CC1 | 1 | / | 4 | -2 | -2 | 6 | / | i
CCCC(C)C(=O)Nc1ccc(F)c(Cl)c1 (stereo not drawn) | -13 | 9 | -6 | -4 | 6 | -1 | 8 | i
CNS(=O)(=O)c1ccc2nc(NC(=O)/C=C/c3ccco3)sc2c1 | / | -6 | -8 | ? | -11 | -5 | -10 | i
COc1ccc(NC(=O)CCCn2c(=O)c3sccc3n(Cc3ccc(C)cc3)c2=O)cc1 | -16 | / | -12 | -13 | 5 | -6 | / | i
Cc1cc(-c2n[nH]c(=S)n2CC(C)C)cs1 | / | -7 | 11 | -4 | 0 | 0 | -11 | i
CN(C)S(=O)(=O)c1cc(NC(=O)CSc2cccc[n+]2[O-])ccc1Cl | -18 | 11 | / | / | 2 | 3 | / | /
O=Cc1ccc(N2CCN(S(=O)(=O)c3ccc4c(c3)CC(=O)N4)CC2)cc1 | 0 | / | / | / | -2 | 3 | -38 | /
CCc1noc(C)c1C(=O)N1CCC(CCC(=O)Nc2cccc(C)c2)CC1 | 4 | 11 | 11 | -4 | 7 | 1 | 15 | i
CCc1ccnc(NS(=O)(=O)c2ccc3c(c2)OCCO3)c1 | -19 | -9 | 11 | -5 | 3 | 0 | 3 | i
O=C(Nc1ccc2[nH]c(=S)sc2c1)Nc1ccccc1F | -25 | 52 | 13 | -17 | -2 | -9 | -220 | i

Reprinted at random: 5 compounds from above.
SMILES | Yeast UUG start | CSC inhib | PABP FP inh | eIF4H FP inh | MT1-MMP act inh | MT1-MMP act inh RFP | Env fusion inh | Rce1 inhib | others
O=S1(=O)CC2NC(=S)N(c3cccc(Br)c3)C2C1 (stereo not drawn) | -13 | 3 | -12 | -9 | 0 | 3 | 12 | i
CCNc1nc(Oc2c(Cl)cccc2Cl)cc(C(F)(F)F)n1 | -13 | ? | -6 | 1 | -10 | -12 | -14 | i
O=c1c2cnn(-c3ccc(F)cc3)c2ncn1Cc1cccnc1 | -22 | -14 | -3 | -9 | 2 | -9 | / | i
O=C(NC(c1ccccc1)c1ccccc1)c1cccc(S(=O)(=O)NCc2ccccc2)c1 | / | 10 | 2 | -6 | -2 | -5 | 2 | i
CCC(=O)N1C(Cc2ccccc2)COC1(C)C (stereo not drawn) | / | 13 | 9 | 2 | 3 | 9 | 3 | i

Compounds from the list above that have a nitro group on carbon, in the order listed:
SMILES | Yeast UUG start | CSC inhib | PABP FP inh | eIF4H FP inh | MT1-MMP act inh | MT1-MMP act inh RFP | Env fusion inh | Rce1 inhib | others
O=c1[nH]c2ccc(Cl)cc2c(-c2ccccc2)c1[N+](=O)[O-] | -2 | 26 | 22 | 19 | -13 | -4 | -347 | /
CCCCCC(=O)NC(=S)NNC(=O)c1ccc([N+](=O)[O-])cc1 | / | -33 | 22 | -1 | 6 | 2 | 8 | i

Next part:
SMILES | Yeast UUG start | CSC inhib | PABP FP inh | eIF4H FP inh | MT1-MMP act inh | MT1-MMP act inh RFP | Env fusion inh | Rce1 inhib | others
CC1(C)Cc2nc(NCCN3CCOCC3)c(C#N)cc2CO1 | -25 | 2 | -1 | -1 | -3 | 6 | -4 | i
O=C(CSc1nnc(-c2ccco2)n1Cc1ccco1)N1CCOCC1 | -12 | -2 | 1 | -4 | -6 | 5 | 16 | i
COc1cccc(-n2cnc3scc(-c4cccs4)c3c2=O)c1 | -7 | -6 | -2 | 1 | -7 | -2 | / | i
CC(=O)c1ccc(NC(=O)c2sc3nc(N4CCOCC4)c4c(c3c2N)CCCC4)cc1 | -10 | 4 | -5 | -6 | 2 | -1 | 1 | i
COc1cccc(CNC(=O)c2cccnc2Sc2ccc(C)cc2C)c1 | -10 | -8 | -8 | 0 | -1 | 1 | 12 | i
COc1cc(C(=O)CCN2CCC(c3ccccc3)C2)cc(OC)c1OC (stereo not drawn) | -1 | 6 | -8 | 4 | 3 | 11 | / | i
CCCS(=O)(=O)N1CCC(C(=O)NC2CCCCC2C)CC1 (stereo not drawn) | -4 | -7 | -7 | -8 | -4 | 0 | / | i
CC(C)Cc1nnc(NC(=O)CSc2nc(N)cc(=O)[nH]2)s1 | -13 | -15 | 6 | 10 | 3 | -3 | 1 | i
CCN(CC)C(=O)c1sc(NC(=O)c2c(OC)cccc2OC)c(C#N)c1C | 1 | -4 | 3 | 8 | -2 | -1 | -14 | i
CCc1nnc(NC(=O)CSc2nnc(-c3ccco3)n2CC)s1 | / | 1 | 1 | 0 | 3 | 3 | -38 | i
Nc1nc(=S)[nH]c2c1C1(CCCCC1)Cc1ccccc1-2 | -11 | -5 | 4 | -12 | -23 | -28 | / | i
C=C(C)CNC(=S)N/N=C1\CCCCc2ccccc21 | -32 | 44 | -20 | -11 | 0 | -4 | -12 | i
O=C(COC(=O)c1ccc(S(=O)(=O)N2CCOCC2)cc1)NCc1ccccc1 | -15 | 9 | / | / | 0 | 0 | -20 | /
CC(C)C(=O)N1C2CCC1CC(O)(c1ccc(F)cc1)C2 (stereo not drawn) | -1 | -13 | -8 | -1 | 1 | 6 | 6 | i
O=C(Cc1cccc(C(F)(F)F)c1)NCc1cccnc1 | 5 | -1 | 18 | 0 | 0 | -1 | 10 | i
O=C(O)c1cccc(C(=O)O)n1 | / | / | 11 | 25 | / | / | / | i
COc1ccccc1NC(=O)CSc1nnc(CCNC(=O)c2ccc(C)cc2)n1C | / | -2 | -2 | 0 | 0 | 1 | -30 | i
COc1ccc(Nc2nnc(SCC(=O)NC3CCS(=O)(=O)C3)s2)cc1 (stereo not drawn) | -20 | / | / | / | 1 | 1 | -2 | /
CCn1c(SCC(=O)N2CCN(c3ccccc3F)CC2)nnc1-c1ccoc1C | 0 | 44 | -4 | 6 | 3 | -4 | / | i
CCOC(=O)c1cnc(-c2ccccc2)nc1Oc1ccc(OC)cc1 | / | -1 | -6 | 6 | -6 | 0 | -1 | i
Cc1cccc(-c2cc3nc(C)cc(NCCCn4ccnc4)n3n2)c1 | -18 | 3 | -2 | 2 | 4 | -1 | -18 | i
Cc1ccc2nc(N3C(=O)C(O)=C(C(=O)c4ccc(C)o4)C3c3cccc(O)c3)sc2c1 (stereo not drawn) | / | -8 | -4 | 1 | -5 | 1 | 2 | i
O=C(Nc1cc(S(=O)(=O)N2CCOCC2)ccc1N1CCOCC1)c1cccs1 | -14 | 2 | / | / | -7 | 3 | / | /
COc1ccc(O)c(/C=N/c2sc(C)c(C)c2C#N)c1 | 2 | -10 | 58* | 37 | 0 | -1 | -48 | i | eIF4H FP inh retest=23;PABP FP inh retest=74*
COc1ccc2c(c1)OC[C@H]1[C@H]2N2C(=O)[C@H](C)NC(=O)[C@@]2(C)[C@H]1c1ccccc1 | -14 | 13 | / | / | 0 | 2 | -16 | /
O=[N+]([O-])c1ccc(OCc2n[nH]c(=S)n2-c2ccccc2)cc1 | -13 | -5 | -12 | -6 | -3 | -3 | 14 | i
Cc1nn(-c2ncc(C(F)(F)F)cc2Cl)c(=O)n1-c1ccccc1F | -11 | -6 | 3 | -3 | -3 | 1 | 19 | i
CC(=O)Nc1nc(C)cs1 | -14 | -8 | 2 | -1 | -1 | 3 | 15 | i
CCOC(=O)C1CCCN(C(=O)c2ccc3oc(Cc4ccccc4)nc3c2)C1 (stereo not drawn) | -10 | -20 | 1 | -9 | 1 | -2 | -74 | i
Cc1nn(C)c(C(=O)NNC(=S)NCc2ccco2)c1Br | / | -9 | 2 | 1 | -1 | 1 | -16 | i
O=C(CSc1nnc(C2CC2)n1-c1ccccc1)NC1CCS(=O)(=O)C1 (stereo not drawn) | -17 | 13 | / | / | 5 | 1 | / | /
O=C(CSc1nnc(Nc2ccccc2)s1)NCC1CCCO1 (stereo not drawn) | -14 | -9 | / | / | -2 | 1 | / | /
O=C(CC12CC3CC(CC(C3)C1)C2)N/N=C\c1ccc[nH]1 | / | 2 | -15 | 5 | 1 | 5 | 9 | i
COc1ccc(-c2ccc(-c3noc(-c4ccccc4F)n3)c(OC)n2)cc1 | -29 | / | 5 | -8 | 3 | 3 | -27 | i
COc1ccccc1NC(=O)c1ccc(NC(=O)CN2CCCC2)cc1 | -4 | 2 | -7 | -7 | -2 | -2 | -7 | i
O=C(NNC(=O)c1cc(Br)c(Br)s1)c1csc(N2CCOCC2)n1 | / | -4 | / | / | -1 | 3 | -93 | i

Random draw from the library; about 3% have a hit in one of these screens.
